Autofluor counter: counter-screen for toxin protease inhibitors: compound fluorescence | fluorescence intensity (test concentration not listed) | 3.1% of 360,000 active | compound autofluorescence counterscreen, microsphere flow cytometry; active compounds read high;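 active = at least 3 SD above the mean of all compounds, about 16000 in these data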;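 also: 100 nL of 1 mM stock went into each well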
BJeLR lethal: kills HRASV12-expressing BJeLR cells; AID 1554; 0.17% of 300,000 active; inhibition, % (concentration not given with the values); BJeLR (HRASV12) viability, CellTiter-Glo ATP luminescence, 48 h; reference of the scale not given here;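 active = replicate mean above 50%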;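 also: 50 nL library stock added to about 25 µL; numbers are from one replicate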
Mtb hypoxia inh: Mtb hypoxia fluorescent reporter inhibition. M. tuberculosis hypoxia-regulated fluorescent reporter, fluorescence. fluorescence inhibition, % (test concentration not listed). 0.1% of 300,000 active. AID 1159583;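 active = 35 to 45% if threefold the growth effect, above 45% if 1.5-fold the growth effect; inactive = the rest, general growth blockers included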;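 also: wells of about 50 µL received 100 nL stock; 0% = vehicle wells and 100% = reference inhibitor wells; whole bacteria with a GFP reporter of the hypoxia response; strong numbers were not always called active; many hits fall short of the cut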
PrP 5UTR inh: suppresses PrP 5' UTR mRNA reporter expression; AID 488862; 0.35% of 340,000 active; cell-based PrP 5' UTR mRNA reporter, plate reader; inhibition, % (test concentration not listed);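 active = every replicate at 50% or more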;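 also: 0 = median of the neutral control wells; tested in H4 reporter cells; numbers are from one replicate; inactives centre near -14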
ugtP null kill: compounds lethal to S. aureus RN4220 ugtP deletion mutant | OD600 growth, 16 h; some inactives read as strong as hits | 0.54% of 330,000 active | growth inhibition, % (concentration not given with the values) | AID 1259309;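 active = z-score under -3 and OD600 up to 0.15 on both plates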;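 also: plate controls were untreated wells for no effect and antibiotic for full effect; wells of about 80 µL received 100 nL stock; the first replicate is given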
RN4220 kill: S. aureus RN4220 growth inhibition; OD600, 16 h; inhibition, % (no concentration beside the values); 0.33% of 330,000 active;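 active = z-score of -3 or lower and OD600 up to 0.18 on both plates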;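 also: plate controls were untreated cells for no effect and reference antibiotic for full effect; stock transfer was 100 nL into about 80 µL; one replicate is shown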
Mtb hypoxia inh growth: second read-out of Mtb hypoxia inh, no call of its own (marks repeat the call); growth inhibition, %; measured here: M. tuberculosis growth (absorbance);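 0% = vehicle and 100% = reference antibiotic; read after six days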
* hit, by the source's call; x = not tested or not shown.

nr	SMILES	RN4220 kill	BJeLR lethal	ugtP null kill	Mtb hypoxia inh
1	Cc1cc(OCC(=O)NCCCN2CCOCC2)c2c(C)cc(=O)oc2c1	2.8	7	4	11
2	COc1ccc(/C(O)=C2/C(=O)C(=O)N(CCCC(=O)O)C2c2ccc(OC)c(OC)c2)cc1 (stereo not given)	3.7	-4	6	x
3	CCCc1[nH]nc2c1C(CCc1ccccc1)C(C#N)=C(N)O2 (stereo not given)	-0.3	0	-6	0
4	CN1CCN(c2ccccc2NC(=O)Cn2ncc3c([nH]c4ccccc43)c2=O)CC1	-1.6	-1	-9	-10
5	Cn1cc(Cl)c(/C=C(\C#N)S(=O)(=O)c2ccccc2)n1	4.2	1	1	12
6	O=C(CSC1=NNC(c2ccccn2)S1)Nc1ccc(C(F)(F)F)cc1 (stereo not given)	-0.3	-8	-3	-18
7	Cc1cc(C)c(C(=O)COC(=O)C2CCN(c3ccc(C(F)(F)F)cn3)CC2)cc1C	x	-1	x	x
8	CCS(=O)(=O)Nc1cc2c3c(c1)CCN3C(=O)CC2	5.4	9	3	14
9	O=C(CSc1ccc(-c2ccco2)nn1)Nc1cccc(F)c1	1.6	1	-3	-1
10	COc1ccc(C2(c3ccc(OC)cc3)NC(=O)N(CC(=O)NCC(F)(F)F)C2=O)cc1	0.4	-4	9	11
11	O=C(NCCc1cn2ccsc2n1)C1CCCCC1	-12	-5	6	9
12	Cc1ccc(S(=O)(=O)Nc2c(O)ccc3ccccc23)cc1	8.7	1	-2	11
13	O=c1cc(-c2ccc(O)c(O)c2)oc2c(C3O[C@H](CO)[C@@H](O)[C@H](O)[C@H]3O)c(O)cc(O)c12 (stereo not given in full)	x	5	x	x
14	O=C(Nc1ccc(C(=O)N2CCOCC2)cc1)c1cccc([N+](=O)[O-])c1	2.4	5	3	-4
15	O=C(NCc1ccccc1CN1CCCC1)C1CCN(S(=O)(=O)c2ccc(Cl)cc2)CC1	0.0	x	-2	-6

nr	Mtb hypoxia inh growth	Autofluor counter	PrP 5UTR inh
1	2	5908	-6
2	x	3642	-26
3	-5	9754	-25
4	4	4746	-2
5	3	6395	-19
6	-8	x	-12
7	x	5460	-15
8	4	7555	-34
9	1	6531	-18
10	2	3911	-22
11	10	6111	-2
12	8	5400	x
13	x	3632	-10
14	6	2193	-11
15	10	9519	-3

The results go on.
nr	SMILES	RN4220 kill	BJeLR lethal	ugtP null kill	Mtb hypoxia inh
16	Cc1cccc(C)c1NC(=O)C(NC=O)c1ccc(N(C)C)cc1 (stereo not given)	-0.5	-1	1	x
17	COc1cc(C)c(CN2CCC(Oc3ccc(C(=O)N4CCCC4)cc3)CC2)cc1C	0.4	9	3	6
18	CC(=NCCN1CCOCC1)c1c(O)n(Cc2ccccc2)c(=O)[nH]c1=O	6.7	7	11	11
19	Cc1ccc(/C=N\NC(=O)Cn2c(C)nc3ccccc32)o1	x	-5	x	x
20	COc1ccc(-n2nc(C(=O)NCC(=O)NC3CCCC(C)C3C)c3ccccc3c2=O)c(OC)c1 (stereo not given)	6.7	-6	6	35*
21	O=S1(=O)CCOCCCN1Cc1ccccc1Br	5.6	-3	2	8
22	COc1ccccc1/C=C1\Cc2ccccc2C1=O	5.9	-4	-8	8
23	CCCC(=O)NC(c1ccccc1)c1c(O)ccc2ccccc12 (stereo not given)	-0.1	-2	1	-6
24	CC(=O)c1c(N2CCC(C(N)=O)CC2)nc(=S)n(-c2ccccc2)c1C	1.8	1	0	6
25	Cn1nc(C(=O)Nc2ccc3c(c2)OCCO3)cc1C(=O)O	8.6	10	5	6
26	COc1ccc(-c2noc3c2-c2nc(-c4ccc(Br)cc4)sc2CC3)cc1	-2.5	10	11	2
27	CC(C)N1CCN(Cc2cccc(-n3cccn3)c2)CC1CCO (stereo not given)	3.8	-1	9	-4
28	NNc1nc2sc3c(c2c(=O)n1-c1ccccc1)CCCC3	7.1	-1	-12	11
29	O=C1Cc2cc(S(=O)(=O)N3CCN(c4cccc(Cl)c4)CC3)ccc2N1	8.3	-2	18	-2
30	CN(CCc1ccccn1)C(=S)NC(=O)c1ccco1	1.0	-14	1	-8

nr	Mtb hypoxia inh growth	Autofluor counter	PrP 5UTR inh
16	x	2722	-7
17	14	6510	7
18	6	13970	-16
19	x	8793	-22
20	-16*	5193	-23
21	-1	3495	-21
22	3	3702	-22
23	4	x	2
24	19	22860*	-5
25	-1	4352	4
26	2	3486	-1
27	-12	4463	-23
28	3	x	-20
29	-6	4168	8
30	-7	3421	-16

Record cards, as listed above.
COc1cc(C)c(CN2CCC(Oc3ccc(C(=O)N4CCCC4)cc3)CC2)cc1C reads RN4220 kill = 0.4; BJeLR lethal = 9; ugtP null kill = 3; Mtb hypoxia inh = 6; Mtb hypoxia inh growth = 14; Autofluor counter = 6510; PrP 5UTR inh = 7
CCCC(=O)NC(c1ccccc1)c1c(O)ccc2ccccc12 (stereo not given) reads RN4220 kill = -0.1; BJeLR lethal = -2; ugtP null kill = 1; Mtb hypoxia inh = -6; Mtb hypoxia inh growth = 4; Autofluor counter = x; PrP 5UTR inh = 2
Cc1cccc(C)c1NC(=O)C(NC=O)c1ccc(N(C)C)cc1 (stereo not given) reads RN4220 kill = -0.5; BJeLR lethal = -1; ugtP null kill = 1; Mtb hypoxia inh = x; Mtb hypoxia inh growth = x; Autofluor counter = 2722; PrP 5UTR inh = -7

The listing continues:
nr	SMILES	RN4220 kill	BJeLR lethal	ugtP null kill	Mtb hypoxia inh
31	Cc1ccc(COC(=O)c2ccc3ccccc3n2)cc1	2.6	-3	2	16
32	COc1ccc(S(=O)(=O)c2c(O)c3ccc(C(=O)Nc4cccc(F)c4)cc3[nH]c2=O)cc1	4.3	1	4	7
33	O=C(CNC(=O)c1ccccc1)NCCc1ccc(O)c(O)c1	x	-6	x	x
34	CCOC(=O)NC(Nc1nc2ccccc2s1)(C(=O)OCC)C(F)(F)F (stereo not given)	-2.6	2	0	4
35	CCN(CC)S(=O)(=O)c1ccc(C(C)NCC(=O)Nc2ccccc2C(=O)NC2CC2)cc1 (stereo not given)	3.0	x	6	-1
36	COC(=O)C1C[C@@]1(C)C(NP(=O)(c1ccccc1)c1ccccc1)c1ccccc1 (stereo not given in full)	2.7	x	1	0
37	O=C1C(Cl)=C(Nc2ccc(O)cc2)C(=O)c2ccccc21	52	3	27	22
38	Cc1cccc(C)c1OCCOC(=O)c1cccc(S(=O)(=O)N2CCOCC2)c1	3.3	x	-1	11
39	Cc1cc(C)cc(OCC(=O)Nc2ccc(N3CCOCC3)cc2N2CCOCC2)c1	7.8	x	14	4
40	COc1ccc(Br)cc1CN1CCN(Cc2c[nH]c3ccccc23)CC1	-8.3	1	6	6
41	CCn1cc(CN2CCCC(C(=O)c3sccc3C)C2)cn1 (stereo not given)	-0.5	6	3	9
42	COc1cccc(NC(=O)Nc2ccc3c(c2)OCO3)c1	-0.2	2	2	-7
43	CN1C(=O)/C(=C/c2ccc3c(c2)OCO3)N=C1c1ccccc1	13	12	-18	14
44	COc1ccc(CN(Cc2cc3cccc(C)c3n3nnnc23)C(=O)N2CCOCC2)cc1	3.2	27	-6	-4
45	CC(=O)c1ccc(NS(=O)(=O)c2ccc3c(c2)N(C(C)=O)CCO3)cc1	0.2	4	-4	-7

nr	Mtb hypoxia inh growth	Autofluor counter	PrP 5UTR inh
31	14	3777	-10
32	-5	4579	-18
33	x	5442	-30
34	9	25071*	-8
35	-3	4411	-23
36	8	x	x
37	16	x	-48
38	7	2962	1
39	3	2864	-22
40	9	3313	-12
41	6	4644	-10
42	-1	x	-97
43	4	2428	-32
44	-3	4358	-20
45	-6	x	-22

Next records follow.
nr	SMILES	RN4220 kill	BJeLR lethal	ugtP null kill	Mtb hypoxia inh
46	Nc1c(C(=O)NN=Cc2ccc(OCc3ccccc3)cc2)cnn1-c1ccccc1	1.9	x	-8	-7
47	Cc1ccc(-c2nnc(SCC(=O)CC(=O)Nc3ccccc3)n2C)cc1	-1.3	0	11	5
48	C=CCNC(=S)NNC(=O)c1ccc(Br)cc1	x	8	x	x
49	CCOC(=O)c1nn(-c2ccccc2)c(=O)c2c(N)scc12	3.8	x	-1	14
50	Cc1cc(C(F)F)n2nc(C(=O)Nc3ccc(S(=O)(=O)N4CCCC4)cc3)nc2n1	23	-1	8	-15
51	CCOCc1cc(CN2CCC(n3nccc3NC(=O)C3CC3)CC2)ccc1OC	2.5	5	13	5
52	COc1ccc(C2C(C(=O)Nc3cccnc3)=C(C)Nc3nc(-c4cccs4)nn32)cc1OC (stereo not given)	0.6	-6	3	x
53	CCN(CC)C(=O)CSc1nc2c(sc(=S)n2-c2ccccc2)c(=O)[nH]1	4.3	14	7	12
54	O=C1[C@@H]2Cc3ccccc3CN2C(=O)N1c1cccc(F)c1	2.7	-4	-2	1
55	C/C(=N\NS(C)(=O)=O)c1ccccc1	x	-3	x	x
56	Cc1ccc(S(=O)(=O)N2CCN(C(=O)c3ccc(N4CCC(C)CC4)c([N+](=O)[O-])c3)CC2)cc1	-3.7	x	-5	-2
57	O=C(NNC(=S)Nc1ccc(F)c(Cl)c1)c1ccccc1Br	-1.3	3	5	19
58	COc1ccc(OC)c(Nc2nc(NCCO)c3ccccc3n2)c1	x	5	x	x
59	O=[N+]([O-])c1ccn(-c2nc(-c3ccccc3)cc(C(F)(F)F)n2)n1	2.5	18	13	9
60	COc1ccc(C(=O)NC2CC3CCCC(C2)N3Cc2ccccc2)cc1OC (stereo not given)	2.2	-5	5	-1

nr	Mtb hypoxia inh growth	Autofluor counter	PrP 5UTR inh
46	-8	x	x
47	1	3628	-21
48	x	2134	-21
49	10	4985	-17
50	8	2500	-11
51	-4	4602	-1
52	x	6093	7
53	12	4842	-7
54	3	8983	-20
55	x	9366	-25
56	6	3423	-26
57	6	4277	-27
58	x	3407	-18
59	5	5265	-20
60	-6	x	-27

(listing goes on)
nr	SMILES	RN4220 kill	BJeLR lethal	ugtP null kill	Mtb hypoxia inh
61	Cc1nn(CC(=O)NC(C)CCc2ccccc2)c(=O)c2nn(-c3ccccc3)c(C)c12 (stereo not given)	2.1	-9	1	-5
62	Cc1ccc(S(=O)(=O)Cn2nnnc2C(C(C)C)N2CCc3ccccc3C2)cc1 (stereo not given)	5.6	-5	2	3
63	O=C(CN1C(=O)NC(Cc2ccccc2)C1=O)NC(=O)NC1CCCCC1 (stereo not given)	4.5	-3	-3	9
64	O=C1NC(=O)C(CC(=O)N(Cc2cccs2)C2(C(=O)NC3CCCCC3)CCCCC2)N1 (stereo not given)	-1.4	6	2	1
65	COc1cccc(NC(=O)[C@@H](NC(=O)N2CCn3c2nc2ccccc23)C(C)C)c1	5.5	-7	-8	2
66	CCOC(=O)C1=C(C)Nc2nc3ccccc3n2C1c1ccncc1 (stereo not given)	-0.5	7	-7	-5
67	CC(=O)Nc1ccc(C(=O)CN2C(=O)NC3(CCOc4ccccc43)C2=O)c(F)c1 (stereo not given)	3.8	x	1	9
68	O=C(O)c1cc(N/N=C/c2c[nH]c3ccccc23)ccc1Cl	x	-4	x	x
69	COCc1nnc(NC(=O)c2ccc(S(=O)(=O)N3CCCCCC3)cc2)o1	20	7	0	x
70	O=C(/C=C/c1ccc(Cl)cc1)NC(=S)Nc1ccc(NC(=O)c2ccco2)cc1	0.4	-2	-2	1
71	Cn1cc(S(=O)(=O)Oc2ccccc2)c(=O)n(C)c1=O	4.4	7	2	0
72	Cc1ccc(Cl)cc1N1CCN(C(c2cccnc2)c2nnnn2C2CCCCC2)CC1 (stereo not given)	2.2	-14	-1	7
73	O=C(/C=C/c1ccccc1)N1CCC[C@H]1CO	x	10	x	x

nr	Mtb hypoxia inh growth	Autofluor counter	PrP 5UTR inh
61	3	5501	-3
62	-5	5620	1
63	7	8743	-16
64	1	2113	0
65	8	6113	-21
66	-11	8649	-15
67	6	4037	-36
68	x	5802	-26
69	x	4666	-12
70	6	2057	16
71	0	3543	2
72	4	10455	-26
73	x	4062	-44

Quoted at random: 3 compounds from above, in no set order.
nr	SMILES	RN4220 kill	BJeLR lethal	ugtP null kill	Mtb hypoxia inh
61	Cc1nn(CC(=O)NC(C)CCc2ccccc2)c(=O)c2nn(-c3ccccc3)c(C)c12 (stereo not given)	2.1	-9	1	-5
70	O=C(/C=C/c1ccc(Cl)cc1)NC(=S)Nc1ccc(NC(=O)c2ccco2)cc1	0.4	-2	-2	1
69	COCc1nnc(NC(=O)c2ccc(S(=O)(=O)N3CCCCCC3)cc2)o1	20	7	0	x

nr	Mtb hypoxia inh growth	Autofluor counter	PrP 5UTR inh
61	3	5501	-3
70	6	2057	16
69	x	4666	-12

Screens from PubChem.
